# Compound activity as filed in PubChem BioAssay.
# MARV entry inh – inhibitors of Marburg virus binding or cell entry; Marburg virus pseudotyped entry inhibition, cell reporter; control for the full effect not named in the record; about a third of the inactives were read at about 46 µM; Potency, µM (top dose mostly 37.8 µM), for the others: at the top dose activity change, negative = inhibition, actives largely listed as inhibitors; actives 1.8% (n = 300,000); AID 540276; active = well fitted inhibition curve with a large enough effect; inconclusive = small, poorly fitted or top-dose-only effect, or effect the other way; inactive = flat fitted curve, though single readings scatter; tested in HEK293 cells; about a fifth of its hits are not listed in these tables; note: % is set by controls: 0 for no effect and ±100 for the full control effect; luciferase read-out
# LASV entry inh – inhibitors of Lassa virus binding or cell entry; Potency, µM (series often up to 37.9 µM), inactives show at the highest dose activity change, negative = inhibition, actives largely listed as inhibitors; AID 540256; Lassa virus pseudotype entry inhibition, cell reporter; control for the full effect not named in the record; actives 1.2% (n = 300,000); active means well fitted inhibition curve with a large enough effect; inconclusive means small, poorly fitted or top-dose-only effect, or effect the other way; inactive means flat fitted curve, though single readings scatter; tested in HEK293 cells; note: % is set by controls: 0 for no effect and ±100 for the full control effect; nearly all actives have a fitted effect of over 50% in size; luciferase read-out
# Cruzain noTriton – blocks cruzain activity in detergent-free assay | Potency, µM, for inactives: max response, negative = inhibition, actives largely listed as inhibitors | purified cruzain, Z-FR-AMC fluorescence, no detergent | P25779 | actives 2.3% (n = 200,000);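 note: plate controls were enzyme without inhibitor for no effect and buffer without enzyme for full effect; nearly all actives have a fitted effect of over 40% in size; top concentration of the series not given in the record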
# Target sequence (P25779 123-467 limits assumed): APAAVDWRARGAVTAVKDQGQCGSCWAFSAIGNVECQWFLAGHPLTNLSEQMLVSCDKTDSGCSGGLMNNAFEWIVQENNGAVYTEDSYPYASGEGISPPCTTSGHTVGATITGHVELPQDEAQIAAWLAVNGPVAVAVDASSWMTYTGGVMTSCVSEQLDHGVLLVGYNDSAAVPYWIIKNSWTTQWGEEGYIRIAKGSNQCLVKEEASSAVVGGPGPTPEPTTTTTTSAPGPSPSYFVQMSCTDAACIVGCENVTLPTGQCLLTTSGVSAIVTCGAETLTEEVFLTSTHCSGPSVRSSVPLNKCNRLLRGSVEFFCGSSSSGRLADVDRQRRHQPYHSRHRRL
#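 Purified cruzain at 1.5 nM, pre-incubated 15 min with compound at room temperature in 100 mM sodium acetate pH 5.5, 5 mM DTT, 0.00005% Triton X-100. Reaction started with 2 uM Z-FR-AMC; AMC fluorescence increase over 60 s gives rate.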
# NS1 inh – inhibitors of influenza NS1 protein function; actives 0.4% (n = 270,000); Potency, µM (titrated, usually from 46.1 µM), without a hit: top-dose activity, positive = more growth; S. cerevisiae slowed by influenza A NS1, growth recovery by OD600; AID 2326; active means well fitted rising curve with a large enough effect; inconclusive means small, poorly fitted or top-dose-only effect; inactive means no such curve, though single readings can be large or run the other way; note: nearly all actives have a fitted effect of over 50% in size
#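 Read-out: OD600 growth recovery of NS1-expressing budding yeast. Cells grown overnight at 30C in -URA glucose medium, washed, resuspended and diluted 1:100 in 2% galactose assay medium, pH 6.0. Same strain lacking NS1 served as positive control.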
# RE007 growth inh – less growth of the S. pombe RE007 Vpr strain. actives 0.21% (n = 360,000). S. pombe RE007 Vpr strain, BacTiter-Glo ATP luminescence, 24 h; control for the full effect not named in the record. Potency, µM (top dose mostly 92.2 µM), for the others: at the highest dose activity change, negative = less growth; active = well fitted falling curve with a large enough effect; inconclusive = small, poorly fitted or top-dose-only effect; inactive = no such curve, though single readings can be large or run the other way;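 note: % is set by controls: 0 for no effect and ±100 for the full control effect; nearly all actives have a fitted effect of over 50% in size; the assay follows cell death caused by Vpr and the record does not say whether a fall means rescue or toxicity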
#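 Fission yeast RE007 carrying one integrated HIV-1 vpr copy, seeded at OD 0.01 in PMG+AL medium with 23 nL pinned compound. Grown 24 h at 30 degrees; viability read by BacTiter-Glo luminescence after 5 min.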
# StopGo reporter – FMDV 2A StopGo reporter, luciferase signal | actives 1.2% (n = 410,000) | Potency, µM (series often up to 57.9 µM), for inactives: at the highest dose signal change, negative = less light | human cells with a luciferase reporter of 2A StopGo recoding; control for the full effect not named in the record; active = well fitted falling curve with a large enough effect; inconclusive = small, poorly fitted or top-dose-only effect; inactive = no such curve, though single readings can be large or run the other way; tested in HEK293T cells; note: % is set by controls: 0 for no effect and ±100 for the full control effect; nearly all actives have a fitted effect of over 45% in size; luciferase light after 4 h
# Cruzain inh Det – inhibitors of Trypanosoma cruzi cruzain with detergent; purified cruzain, Z-FR-AMC fluorescence, 0.01% Triton; P25779; actives 0.43% (n = 200,000); AID 1478; Potency, µM, without a hit: max response, negative = inhibition, most hits filed as inhibitors;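 note: plate controls were neutral wells for no effect and buffer without enzyme for full effect; nearly all actives have a fitted effect of over 40% in size; top concentration of the series not given in the record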
#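 Z-FR-AMC hydrolysis (2 uM substrate) by cruzain (1.5 nM) monitored kinetically at ex 360/em 450 nm after 15 min room-temperature compound exposure; 0.01% Triton X-100, pH 5.5, 5 mM DTT.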
# SARS PLP yeast – inhibitors of SARS-CoV papain-like protease in yeast; S. cerevisiae expressing SARS-CoV PLpro, growth rescue; control for the full effect not named in the record; Potency, µM (highest dose often 32.9 µM), without a hit: top-dose activity, positive = growth rescue; actives 0.19% (n = 330,000); active means well fitted rising curve with a large enough effect; inconclusive means small, poorly fitted or top-dose-only effect; inactive means no such curve, though single readings can be large or run the other way; note: 0% is about no effect; nearly all actives have a fitted effect of over 55% in size; growth read by luminescence after 48 h
# * = called active by the depositor; ? = inconclusive; · = no result given; & = joins results of further samples; [ ] = dose if it differs, or a comment. Unless noted, calls come from the whole dose curve; as a rule, active = well fitted curve in the direction sought with a large enough effect; inconclusive = small, poorly fitted or top-dose-only effect, or another doubt; inactive = no such curve, though single readings can be large; an effect the other way counts as inactive or inconclusive. Potency is the fitted concentration of half-maximal effect. No enrichment for hits (roughly 4.7% active in at least one column).
SMILES,MARV entry inh,LASV entry inh,Cruzain noTriton,NS1 inh,RE007 growth inh,StopGo reporter,Cruzain inh Det,SARS PLP yeast
Cc1cc(C)n2nc(C(=O)Nc3ccc4c(c3)OCO4)nc2n1,15.7%[46.1 µM],?,?,?,-4.0%,5.2%,-1.8%,-12.3%
Clc1ncc(CN2CCN(c3ccccc3)CC2)s1,-3.6%[46.1 µM],4.5%[46.1 µM],·,0.5%,-3.5%,-5.8%,·,3.8%
O=[N+]([O-])c1cc(-c2ccc(/C=N\n3cnnc3)o2)cc([N+](=O)[O-])c1,-0.8%,?,·,13.0%,13.5%,-19.1%,·,-2.7%
CCCCN(C)C(=O)c1cn(CC)c2ccc(S(=O)(=O)N(C)C)cc2c1=O,·,·,-8.0%,5.1%,-1.8%,25.7%,0.9%,-0.7%
CC(C)(C)NC(=O)C(c1cccs1)N(C(=O)c1csnn1)c1cccc(F)c1 (stereo unspecified),·,·,·,-2.3%,19.0%,6.8%,·,-0.2%
COCC(=O)Nc1ccc(S(=O)(=O)N2CCCC2)cc1,?,-5.1%,·,11.1%,-3.9%,-10.0%,·,0.8%
Cc1ccc(S(=O)(=O)N2CCN(C(=O)CCn3nc(C)c(C)c3C)CC2)cc1C,0.6%,-4.8%,·,-20.5%,-13.6%,-14.8%,·,-1.2%
O=C(CCl)Nc1cccc(-c2cnc3ccccc3n2)c1,?,?,-25.8%,-73.6%,-5.2%,25.1µM*,-13.1%,?
COc1cc2[nH]c3ccccc3c2cc1C,·,·,·,12.5%,-17.3%,19.8%,·,-1.7%
O=C(COC(=O)C1CC(=O)N(Cc2ccco2)C1)c1ccc(OC(=O)c2ccco2)cc1 (stereo unspecified),?,8.6%,?,9.8%,6.1%,24.4%,-21.7%,-9.2%
CC(C)c1ccccc1NC(=S)N1CCN(S(=O)(=O)c2cccs2)CC1,?,-11.3%[46.1 µM],·,·,0.5%,-5.4%,·,-0.2%
Cc1ccc(-c2nc(NC(=O)CSc3ccc4ccccc4n3)ns2)cc1,?,-0.5%[46.1 µM],6.1%&-8.8%,-2.1%,-12.0%,-2.0%&4.5%,-2.0%&1.2%,3.7%
Cc1ccc(CNC(=O)/C(C#N)=C\c2ccc(N(C)C)cc2)cc1,-5.7%,·,8.9%,-3.1%,·,·,-7.8%,3.5%
O=C(O)CCc1nc2ccccc2c(=O)[nH]1,-5.6%[46.1 µM],4.0%,·,0.8%,18.9%,-1.9%,·,1.0%
Cc1cccc(N=C2NC(=O)/C(=C/c3cccnc3)S2)c1C,·,·,·,1.3%,-7.3%,-22.2%,·,0.9%
Cc1cc(C)cc(NC(=O)[C@H](NC(=O)[C@@H]2Cc3ccccc3CN2)c2ccccc2)c1,1.41µM*,29.7%[46.1 µM],·,4.1%,-18.9%,-16.1%,·,-4.4%
CCOc1ccc(NS(=O)(=O)c2ccc(C(=O)NNC(=O)c3ccccc3O)cc2)cc1,?,?,·,·,-8.7%,-7.9%,·,?
Cc1[nH]n(C(N)=S)c(=O)c1N=Nc1cccc(Cl)c1,·,·,·,-42.1%,-6.6%,51.0%[activator],·,13.1%
O=C(c1ccc2ccccc2c1)N1CCN(c2ccc([N+](=O)[O-])c(N3CCOCC3)c2)CC1,7.0%,?,14.3%,4.4%,5.1%,?,-13.9%,-8.1%
CCOC(=O)Cn1c(=O)n(CC2CCCO2)c2nc(-c3c(F)cccc3Cl)nc(C(N)=O)c21 (stereo unspecified),·,-3.0%[46.1 µM],-7.1%,·,·,-26.2%,-1.9%,·
CCCOc1ccc(/C=N/Nc2ccccc2[N+](=O)[O-])c(OCCC)c1,-10.3%,?,?,3.2%,-3.5%,6.2%,-2.0%,-13.8%
CCOc1ccc(CC(=O)Nc2c(C(=O)c3ccc(F)cc3)oc3ccc(Cl)cc23)cc1OCC,?,-10.3%[46.1 µM],21.2%,·,·,-14.3%,0.6%,·
CNC(=O)CSc1cn(CC(=O)N2CCCCCC2)c2ccccc12,·,-11.6%[46.1 µM],6.2%,·,·,15.0%,-1.4%,·
COc1ccc(-c2onc(C)c2-c2cnn(-c3ccccc3)c2)c(O)c1C,?,-0.2%[46.1 µM],·,·,-19.7%,8.4%,·,-9.5%
CCCCCCCCCCCCS(=O)(=O)CCC(=O)O,-17.7%[46.1 µM],-21.0%,·,3.1%,4.3%,-23.3%,·,-0.2%
Cc1ccnc(SCC(=O)N2CCCc3ccccc32)n1,·,·,·,-1.3%,2.0%,10.9%,·,-1.7%
N#Cc1ccc(-c2cccs2)nc1SCc1ccc(Cl)cc1Cl,2.1%[46.1 µM],?,-9.2%,·,·,-11.1%,-1.0%,·
O=C(CN(Cc1ccco1)C(=O)CNS(=O)(=O)c1ccc(F)cc1)NCc1ccc(F)cc1,-23.1%&-23.1%[46.1 µM],3.3%,-4.5%,-4.3%,28.1%,-19.8%,0.1%,5.6%
CCc1cccc(CC)c1N(COC)C(=O)Cn1ccccc1=N,20.7%,-2.7%,2.6%,-2.4%,-3.1%,0.0%,1.1%,0.7%
O=C(Nc1ccc2nc3n(c(=O)c2c1)CCCC3)c1cccc(F)c1,·,·,·,-9.2%,-16.3%,32.9%[activator],·,-0.4%
Cn1c(=O)oc2cc(S(=O)(=O)N3CCCC(C(=O)Nc4ccccn4)C3)ccc21 (stereo unspecified),·,·,-3.5%,-0.5%,-4.2%,?,0.8%,2.9%
COc1ccc(NC(=O)c2sc3nc(-c4cccnc4)ccc3c2N)cc1OC,-2.6%[46.1 µM],10.7%,·,1.6%,-23.3%,-6.2%,·,0.3%
COc1ccc(NC(=O)CN(C)S(=O)(=O)c2ccc3c(c2)n(C)c(=O)c(=O)n3C)cc1,14.3%[46.1 µM],25.2%[46.1 µM],·,5.0%,3.6%,1.0%,·,3.4%
CCOCCCNC(=O)Cc1cc(=O)[nH]c(=O)[nH]1,·,·,-15.3%,-7.5%,1.6%,-16.4%,-2.7%,0.9%
COc1ccc(C(=O)CCC(=O)Nc2ccc(N3CCCCC3)cc2)cc1OC,-1.2%[46.1 µM],24.1%,·,20.4%,0.2%,13.0%,·,-1.2%
Cc1cccc(NC(=O)[C@@H]2CCCN2C2=NS(=O)(=O)c3ccccc32)c1C,-4.0%,-6.6%,·,·,0.5%,4.0%,·,-4.6%
N#Cc1nc(COc2ccccc2)oc1N1CCN(Cc2ccccc2)CC1,-3.9%,?,-4.9%,-58.5%,-7.7%,-24.1%,-2.0%,1.0%
Cc1ccc(S(=O)(=O)/N=C2/NC(=O)/C(=C\c3cc(Br)cc(Br)c3O)S2)cc1,·,·,·,?,-2.7%,7.9%,·,1.8%
CCCCn1c(SCC(N)=O)nc2c(sc3ccccc32)c1=O,-37.0%,-14.2%,?,-1.1%,-11.6%[3.69 µM],17.9%,-3.7%,7.2%
CCc1c(C)nc(SC(C(=O)O)c2ccccc2)c(C#N)c1C (stereo unspecified),?,22.3%,3.1%,5.6%,7.9%,-25.8%,-2.0%,-2.1%
COC(=O)c1sc2ccccc2c1-n1cccc1C(=O)C(=O)Nc1ccc(F)cc1,?,-1.5%,?,25.8%,4.3%,-17.0%,-4.6%,-5.5%
S=C(Nc1ccc(Cc2ccncc2)cc1)Nc1cccc(Cl)c1,9.9%[46.1 µM],-0.7%,·,-5.8%,-12.3%,-13.7%,·,-2.6%
COc1cc(C(=O)OCn2nnc3ccccc3c2=O)cc(OC)c1OC,9.3%,?,?,-7.0%,16.7%,-9.4%,0.6%,-6.0%
CCn1cc(C(=O)Nc2ccc(F)c(F)c2)cn1,21.6%,-11.9%,-9.6%,-15.5%,1.4%,39.2%[activator],-1.5%,5.4%
O=C(COC(=O)c1ccccc1[N+](=O)[O-])NCCCc1ccccc1,·,·,·,-4.3%,-8.4%,0.0%,·,1.1%
Cc1c(NC(=O)CSc2nnc(COc3ccccc3)n2-c2ccccc2)c(=O)n(-c2ccccc2)n1C,-7.4%,?,4.0%,0.9%,3.9%,-13.8%,1.8%,0.5%
COc1cc(OC)c(C2=NOC(C(=O)Nc3c(C)n(C)n(-c4ccccc4)c3=O)C2)cc1Cl (stereo unspecified),8.4%,5.6%,·,7.4%,3.3%,-17.9%,·,8.2%
Cc1ccc(CN2CCC(Oc3ccc(C(=O)NCc4ccccn4)cc3)CC2)o1,·,·,·,6.1%,-3.6%,-11.7%,·,1.4%
COC(=O)c1cc(NC2(c3ccccc3)C(=O)c3ccccc3C2=O)cc(C(=O)OC)c1,·,-0.6%[46.1 µM],-1.7%,·,·,23.5%,-7.4%,·
Cc1ccc(OCc2nnc(SCC(=O)Nc3ccc4c(c3)OCCO4)n2Cc2ccco2)cc1,-11.3%&-11.3%,-5.5%,1.2%,-50.7%,11.1%,?,-4.8%,-6.1%
COc1cc(NC(=O)C2CCCCC2)c(OC)cc1NC(=O)CN1CCCCC1,-22.5%,-17.1%,-2.2%,0.8%,-13.4%,-26.8%,2.7%,5.1%
Cc1nc2c3ccccc3nc(SCC(=O)N3CC(C)CC(C)C3)n2n1 (stereo unspecified),?,-3.0%,12.3%,4.4%,20.2%,-7.9%,-16.1%,-4.2%
CN(C)c1cc2c3ccccc3n(C)c2cc1N,?,8.9%,·,·,?,11.5%,·,·
CN(CCc1ccccc1)C(=O)c1cc(COc2ccc(F)cc2Cl)on1,·,·,·,-11.8%,4.5%,9.2%,·,-6.3%
Cc1ccc(C(=O)COC(=O)CCC(=O)Nc2cc(Cl)ccc2Cl)cc1[N+](=O)[O-],?,-11.9%,7.0%,1.2%,2.9%,-30.7%,-3.1%,0.8%
CCOc1cccc(C(=O)N2CCC(c3nc4ccccc4s3)CC2)c1,1.1%[46.1 µM],3.8%[46.1 µM],-8.8%,·,·,-17.7%,-8.8%,·
COc1ccc2[nH]c(C)c(CCNC(=S)Nc3cc(C)cc(C)c3)c2c1,33.3%,-16.2%,2.9%,1.3%,12.3%,-8.9%,-7.4%,2.1%
